PKD1 inh – inhibitors of human PKD1 kinase, biochemical, fluorescence polarization; Serine/threonine-protein kinase D1 (Homo sapiens), Q15139; PKD1 kinase fluorescence polarization assay; inhibition, %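 (about 10 µM by stock and volumes)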; 200,000 compounds, 0.056% hits;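 active means inhibition of 50% or more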;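 further: controls were vehicle for no effect and a reference inhibitor for full effect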
RGS16-Gao HTS – modulators of RGS16 binding to Galphao, primary screen, biochemical, human proteins, multiplexed bead flow cytometry; Regulator of G-protein signaling 16 (Homo sapiens) + Guanine nucleotide-binding protein …; bead-based flow cytometry RGS16-Galphao binding, fluorescence; actives lie on both sides; binding response (% of control), % at 10 µM; 220,000 compounds, 0.38% hits; AID 1441, 2008;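 active means below 25% or above 175%, edge rows of some plates excepted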;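 further: Galphao activated by GDP with aluminum fluoride before binding; 100% = wells without compound and 0% = beads without RGS; some results beyond the cut were filed as inactive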
Target sequence (O15492 whole entry, looked up): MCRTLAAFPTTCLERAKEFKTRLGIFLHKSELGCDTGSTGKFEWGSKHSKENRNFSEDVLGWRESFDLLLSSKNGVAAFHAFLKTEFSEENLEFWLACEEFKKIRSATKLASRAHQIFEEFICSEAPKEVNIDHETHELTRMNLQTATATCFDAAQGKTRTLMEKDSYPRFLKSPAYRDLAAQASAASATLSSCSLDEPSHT
Target sequence (P09471 whole entry, looked up): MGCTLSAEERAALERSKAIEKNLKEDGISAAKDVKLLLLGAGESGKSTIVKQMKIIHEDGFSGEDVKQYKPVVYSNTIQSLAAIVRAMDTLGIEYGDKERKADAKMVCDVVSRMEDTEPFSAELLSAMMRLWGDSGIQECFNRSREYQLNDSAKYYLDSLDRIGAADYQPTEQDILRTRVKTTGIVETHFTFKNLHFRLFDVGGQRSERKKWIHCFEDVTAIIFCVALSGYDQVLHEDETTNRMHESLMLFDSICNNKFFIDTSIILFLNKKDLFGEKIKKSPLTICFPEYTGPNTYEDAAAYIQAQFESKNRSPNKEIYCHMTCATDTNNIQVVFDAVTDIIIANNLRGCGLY
Insulin prom inh – inhibitors of insulin promoter-driven GFP, primary screen, imaging, TRM-6 cells (human fetal islet line), eGFP reporter, cell count; AID 1273, 2008; 130,000 compounds, 0.9% hits; reporter expression induced with tamoxifen; inhibition, % at 2 µM;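 active means inhibition above the mean plus 3 SD, with well images judged a real hit on visual review, cut at about 60% in these data, passing the limit was not always enough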
GALR2 ag – GALR2 receptor agonists, primary screen, cell-based; activation, %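 (tested at 5 µM)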; GALR2-expressing cells, agonist activation read-out; 140,000 compounds, 0.48% hits; AID 803, 2007; Galanin receptor type 2 (Homo sapiens), O43603;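 active means above mean plus 3 SD of all compounds, about 5% in these data, not always enough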;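 further: 0% = vehicle buffer wells and 100% = reference agonist at full effect; tested in CHO reporter cells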
Target sequence (O43603 whole entry, looked up): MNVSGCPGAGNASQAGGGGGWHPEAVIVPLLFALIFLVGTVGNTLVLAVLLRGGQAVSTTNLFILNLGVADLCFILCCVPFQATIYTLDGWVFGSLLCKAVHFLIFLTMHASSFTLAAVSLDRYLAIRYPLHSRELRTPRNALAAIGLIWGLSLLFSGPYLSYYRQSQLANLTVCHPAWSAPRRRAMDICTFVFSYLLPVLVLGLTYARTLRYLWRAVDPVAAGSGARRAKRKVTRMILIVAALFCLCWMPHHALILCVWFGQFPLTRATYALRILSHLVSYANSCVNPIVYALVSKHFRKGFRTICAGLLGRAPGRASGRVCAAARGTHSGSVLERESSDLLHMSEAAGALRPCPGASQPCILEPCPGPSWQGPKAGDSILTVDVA
HSV replic up – enhancers of HSV replication in host cells, fold increase, host cell viability; 220,000 compounds, 0.005% hits; HSV replication augmentation in cells; maximum fold increase;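 active means peak rise of 1.5-fold or more in the series; tested in PC3 cells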;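 further: first round at 10 µM; read as green reporter fluorescence; hits show the peak of a series up to 25 µM; 1 = signal of infected wells without compound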
Insulin prom inh cell count – further read-out of Insulin prom inh, marked with its call; normalized cell count, %; measured here: cell count, toxicity; reference of the scale not given here;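 cells exposed to compound for 48 h; stained nuclei by imaging scaled within each plate; lower means fewer cells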
HSV replic up primary fold – recorded beside HSV replic up, whose call it bears; fold increase; compound at 10 µM; measured here: primary screen fold increase 10 uM; tested in PC3 cells;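 GFP signal in the first replicate; 1 = infected wells without compound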
* hit, by the source's call; i = inactive; x = not tested or not shown. Compounds were not picked by outcome. Share with any hit: about 1.3%.

Below each SMILES: Insulin prom inh	HSV replic up	PKD1 inh	Insulin prom inh cell count	RGS16-Gao HTS	HSV replic up primary fold	GALR2 ag
1. CCN(CC)C(=O)CSc1nsc(SCC(=O)N(CC)CC)c1C#N
 : 15.1	x	1.6	118.6	64.6	x	-1.4
2. COCC(C)n1c(C)cc(C(=O)COC(=O)CN=C2NS(=O)(=O)c3ccccc32)c1C (centres undefined)
 : -21.4	i	-10.3	48.3	103.9	1.07	-1.5
3. CCOCCCn1c(=S)[nH]c2cc(C(=O)N3CCOCC3)ccc2c1=O
 : x	i	5.6	x	95.8	0.97	-1.1
4. O=C(NCc1cccs1)C1CC(=O)N(C2CCCC2)C1 (centres undefined)
 : -45.5	i	6.3	52.9	88.6	0.86	-1.5
5. CC1CCCCC1NC(=O)COc1ccc(-n2cnnn2)cc1 (centres undefined)
 : 18.9	i	0.1	136.1	102.5	1.03	-1.2
6. O=C(c1cc(=O)[nH]c2ccccc12)N1CCN(c2ccccc2)CC1
 : x	i	x	x	106.1	1.09	x
7. Cc1nc(N2CCN(C)CC2)[nH]c(=O)c1Cc1cccc2ccccc12
 : -10.3	i	-10.1	62.2	96.1	1.01	-1.9
8. CCC(=O)c1ccc(N2CCN(C(=O)c3cccc(F)c3)CC2)c(F)c1
 : 23.1	i	4.0	107.5	106.1	1.03	x
9. CCC1/C(=N\O)CC(c2ccco2)NC1c1ccco1 (centres undefined)
 : -89.3	i	-6.5	98.2	105.1	0.85	-2.9
10. COc1ccc2c(CC(=O)OCC(=O)Nc3ccc4c(c3)OCO4)coc2c1
 : x	i	-8.9	x	95.5	1.12	-1.3
11. Cc1ccc(-n2c(SCC(=O)NCC3CCCO3)nc3n[nH]c(C)c3c2=N)cc1Cl (centres undefined)
 : x	i	-0.7	x	114.5	0.89	0.4
12. Cn1c(Cn2c3ccccc3c3ccccc32)n[nH]c1=S
 : x	i	x	x	98.4	0.96	x
13. O=C(CSc1nccc(=O)[nH]1)c1ccco1
 : 20.0	i	4.6	109.7	105.5	1.09	x
14. O=[N+]([O-])c1cccc(C(=S)N2CCN(c3ccccc3)CC2)c1
 : -16.7	i	2.0	116.3	87.8	0.83	-0.2
15. O=C(Nc1ccc(F)cc1)N1CCCC(c2nc3c(nnn3Cc3ccccc3Cl)c(=O)[nH]2)C1 (centres undefined)
 : x	i	0.8	x	141.6	1	x
16. C(=Nc1cccc2c(N=Cc3ccco3)cccc12)c1ccco1
 : x	i	-2.5	x	100.6	1.14	x
17. Cc1cc2cc3c(cc2nc1SCC(=O)Nc1nc(C)c(C)s1)OCO3
 : 25.0	i	1.6	131.3	213.3	0.99	-0.4
18. Cc1ccc(NC(=O)Cn2nnc3ccccc32)cc1
 : x	i	15.5	x	101.7	1.04	x
19. C=CCSc1ncccc1C(=O)NCc1ccccc1
 : x	i	-13.2	x	104.7	1.14	-1.3
20. CC(C)(O)c1cc(=O)sc2nc3ccccc3n12
 : 7.7	i	1.3	114.3	87.7	0.82	-2.7

Structures from the list above with a halogen (3):
Below each SMILES: Insulin prom inh	HSV replic up	PKD1 inh	Insulin prom inh cell count	RGS16-Gao HTS	HSV replic up primary fold	GALR2 ag
8. CCC(=O)c1ccc(N2CCN(C(=O)c3cccc(F)c3)CC2)c(F)c1
 : 23.1	i	4.0	107.5	106.1	1.03	x
11. Cc1ccc(-n2c(SCC(=O)NCC3CCCO3)nc3n[nH]c(C)c3c2=N)cc1Cl (centres undefined)
 : x	i	-0.7	x	114.5	0.89	0.4
15. O=C(Nc1ccc(F)cc1)N1CCCC(c2nc3c(nnn3Cc3ccccc3Cl)c(=O)[nH]2)C1 (centres undefined)
 : x	i	0.8	x	141.6	1	x

Continuation.
Below each SMILES: Insulin prom inh	HSV replic up	PKD1 inh	Insulin prom inh cell count	RGS16-Gao HTS	HSV replic up primary fold	GALR2 ag
21. OCC1CCN(Cc2nc(Cc3ccccc3Cl)no2)CC1
 : x	i	-0.9	x	106.4	0.82	x
22. CCn1nc(CC(=O)Nc2nnc(CC(=O)N3CCCCC3)s2)c2ccccc2c1=O
 : 5.7	x	-8.0	169.8	103.1	x	-0.2
23. CC1CCC(C(C)C)C(OCC(O)CNC(C)(C)C)C1 (centres undefined)
 : x	i	-1.9	x	103.9	0.92	x
24. O=C(Nc1cccc2ccccc12)N1CCN(Cc2ccccc2)CC1
 : x	i	3.9	x	93.5	0.97	-1.3
25. COc1cc(OC)cc(-c2nc(-c3cccs3)no2)c1
 : x	i	1.1	x	104.7	1.09	x
26. CC(C)NS(=O)(=O)c1ccc(CCC(=O)N2CCc3ccccc3C2)cc1
 : -17.6	i	-5.3	95.5	87.9	0.95	x
27. N/C(=N\OC(=O)c1cnn(-c2ccccc2)c1C(F)(F)F)c1cc(C(F)(F)F)cc(C(F)(F)F)c1
 : x	i	x	x	85.4	1.03	x
28. Cc1nc(C)c(C(=O)NNS(=O)(=O)c2ccccc2)s1
 : -63.3	i	0.2	94.4	100.7	1	0.3
29. Cc1ccc(CNC(=O)COC(=O)Cc2ccc(-c3ccccc3)cc2)cc1
 : -40.0	i	-9.1	95.2	88.3	1.01	-2.5
30. Cc1cc(C)nc(Nc2ccc(C)c([N+](=O)[O-])c2)n1
 : x	i	0.5	x	110.2	0.85	x
31. CC(C)CC(=O)NC(c1cccs1)c1ccc2cccnc2c1O (centres undefined)
 : 48.1	i	-3.4	47.2	103.5	0.73	x
32. O=C(NC(=S)Nc1ccc(N2CCCC2)cc1)c1ccccc1[N+](=O)[O-]
 : 11.1	i	-10.5	123.6	103.0	0.77	2.1
33. CNC(=O)C1CC(=O)N(Cc2ccc3c(c2)OCO3)C(=Nc2ccc(F)cc2)S1 (centres undefined)
 : x	i	6.1	x	102.5	0.77	-0.8
34. O=[N+]([O-])c1cc(/C=N/OCc2c(Cl)cccc2Cl)ccc1N1CCOCC1
 : 47.7	i	4.1	70.0	104.0	0.85	1.1
35. COC(=O)c1c(NC(=O)CSc2nnc(-c3ccco3)n2Cc2ccccc2)sc(C)c1C
 : -1.4	i	0.7	108.5	102.4	0.83	0.1
36. CCc1ccc(N2CC(C(=O)Nc3ccccc3F)CC2=O)cc1 (centres undefined)
 : x	i	-13.6	x	82.2	0.76	-1.0
37. Brc1ccc(-c2nc3ncccn3c2NC2CCCCC2)o1
 : x	i	3.9	x	95.5	1.03	-1.1
38. CSCC(NS(=O)(=O)c1ccc(C)cc1)C(=O)O (centres undefined)
 : x	i	3.6	x	108.0	0.93	x
39. CCN(CC)Cc1cc(NC2=NS(=O)(=O)c3ccccc32)ccc1OC(=O)C(C)C
 : 15.1	i	1.1	132.3	96.6	0.93	-2.6
40. Cc1ccc(C(=O)NNc2ncnc3c2cnn3C)cc1
 : x	i	x	x	94.5	1.15	x

Record cards, as listed above. Order of values: Insulin prom inh | HSV replic up | PKD1 inh | Insulin prom inh cell count | RGS16-Gao HTS | HSV replic up primary fold | GALR2 ag
`Cc1cc(C)nc(Nc2ccc(C)c([N+](=O)[O-])c2)n1` in the list: x | i | 0.5 | x | 110.2 | 0.85 | x
`CC1CCC(C(C)C)C(OCC(O)CNC(C)(C)C)C1` (centres undefined) in the list: x | i | -1.9 | x | 103.9 | 0.92 | x

Next results:
Below each SMILES: Insulin prom inh	HSV replic up	PKD1 inh	Insulin prom inh cell count	RGS16-Gao HTS	HSV replic up primary fold	GALR2 ag
41. CC(=O)Nc1c(C(=O)C2CC2)oc2ccccc12
 : 44.0	i	-5.2	102.9	107.6	0.93	-0.7
42. CCNc1nc(Cl)nc(NCCOc2ccc(C)cc2)n1
 : 0.0	i	2.8	101.8	110.0	0.92	1.2
43. CCC(SC1=NCCS1)C(=O)Nc1ccc(S(N)(=O)=O)cc1 (centres undefined)
 : 27.0	i	-12.0	136.8	110.5	1.09	-0.8
44. COc1ccc2c(c1OC)C(=O)N(c1nccs1)C2
 : -15.6	i	0.7	97.2	101.8	0.84	-0.5
45. O=S(=O)(Nc1ccccc1O)c1cccc2cccnc12
 : x	i	-1.5	x	116.0	0.95	x
46. COc1ccc(CC(=O)N2CCN(c3ccc(C4=NNC(=O)CC4C)cc3)CC2)cc1 (centres undefined)
 : x	x	-11.2	x	93.7	x	-1.1
47. COc1ccccc1/C=[N+](\[O-])C1SC(=S)N(C)C1(C)C (centres undefined)
 : x	i	x	x	92.9	0.94	x
48. O=C(Cc1n[nH]c(=O)c2ccccc12)Nc1ccc(-c2nnc3n2CCCCC3)cc1
 : 34.3	i	-6.2	111.2	103.7	0.89	-2.9
49. COc1cc(/C=N/NC(=Nc2ccc(C)cc2)c2nc3ccccc3s2)ccc1O
 : 43.3	i	1.7	128.9	95.6	0.78	-0.7
50. c1ccc2c(c1)[nH]c1c(N3CCC4(CC3)OCCO4)ncnc12
 : 0.0	i	8.0	107.5	99.1	0.94	-0.5
51. Cc1c(Br)c([N+](=O)[O-])nn1C(C)C(=O)N1CCCc2ccccc21 (centres undefined)
 : x	i	0.9	x	98.8	0.87	-2.0
52. CCOC(=O)N1CCN(C(=O)CSCc2nc(-c3ccccc3F)oc2C)CC1
 : -42.9	i	-0.9	93.7	101.5	0.96	-4.1
53. Cc1cc(C(=O)N/N=C2\CC(=O)CC(C)(C)C2)c2ccccc2n1
 : -20.0	i	-6.5	125.6	99.9	0.92	-1.6
54. C=CCSc1ncc(-c2ccccc2)cn1
 : -20.0	i	-3.9	87.3	102.4	1.02	x
55. Cc1cc(NC(=O)C2C3C(=O)N(CCC(C)C)C(C(=O)NCc4ccccc4)C34C=CC2(C)O4)no1 (centres undefined)
 : 20.0	i	-38.9	111.7	97.5	0.9	-3.5
56. O=C(N/N=C/c1ccc([N+](=O)[O-])o1)c1ccc(O)cc1
 : -9.5	i	17.7	82.8	109.8	0.8	0.0
57. CSc1ccccc1NC(=O)CN(C)CC(=O)Nc1ccccc1C(F)(F)F
 : 37.5	i	-8.7	87.3	100.6	0.9	x
58. Cc1c(Nc2cc(N3CCCC(C)C3)c3nonc3c2[N+](=O)[O-])c(=O)n(-c2ccccc2)n1C (centres undefined)
 : x	x	0.5	x	105.8	x	0.1
59. Cc1ccccc1N(C(=O)Cc1c[nH]c2ccccc12)C(C(=O)NC1CCCCC1)c1ccco1 (centres undefined)
 : -11.1	i	-3.2	60.2	106.4	0.82	6.1*
60. CC1CCc2c(c3ccccc3[nH]c2=O)O1 (centres undefined)
 : -14.3	i	-2.0	50.6	155.7	0.78	-0.3

With a hit mark in GALR2 ag, of those listed so far:
item	canonical_smiles	PKD1 inh	RGS16-Gao HTS	HSV replic up primary fold	GALR2 ag
59	Cc1ccccc1N(C(=O)Cc1c[nH]c2ccccc12)C(C(=O)NC1CCCCC1)c1ccco1 (centres undefined)	-3.2	106.4	0.82	6.1*

Next entries follow.
Below each SMILES: Insulin prom inh	HSV replic up	PKD1 inh	Insulin prom inh cell count	RGS16-Gao HTS	HSV replic up primary fold	GALR2 ag
61. CCn1c(COc2c(C)cccc2C)nnc1SCc1nc2ccccc2c(=O)[nH]1
 : x	i	-9.5	x	98.3	0.87	x
62. Fc1ccc(N2N=C(c3cccs3)CC2c2ccccc2)cc1 (centres undefined)
 : x	i	-3.0	x	92.5	1.02	x
63. COc1ccccc1NC(=O)COC(=O)c1ccccc1C(=O)N1CCN(c2ccccc2)CC1
 : -15.4	i	1.8	112.7	97.2	0.93	x
64. COC(=O)c1ccc(N=Cc2c(C(F)(F)F)[nH]n(C)c2=O)cc1
 : x	i	-7.4	x	100.0	1.03	x
65. Nc1ccc(-c2nc3ccc(C(=O)O)cc3s2)cc1
 : 33.3	i	-5.2	67.6	66.8	1.11	0.7
66. Cc1cccc(C)c1N1CCN(C(=O)Cn2cncn2)CC1
 : x	i	-0.6	x	98.0	0.97	x
67. O=C(COC(=O)c1cccnc1Cl)NCc1ccco1
 : 0.0	i	-4.5	105.4	103.6	0.97	x
68. COC(=O)c1cc(C#N)c(Oc2cccc(C)c2C)nc1C
 : 50.0	i	7.8	73.5	70.7	1.04	-1.6

Bioassay records as filed in PubChem.
